# High-throughput results deposited in PubChem BioAssay by National Center for Advancing Translational Sciences (NCATS).
# Rango release inh – inhibition of RanGTP-driven Rango-importin beta dissociation. O95149+P62826. 340,000 compounds, 0.071% hits. AID 540253. Biochemical FRET Rango-importin beta, RanGTP-induced dissociation. Potency, µM (doses to about 46.1 µM), without a hit: at the top dose activity change, negative = inhibition; active means falling FRET ratio curve, often poorly fitted, with flat reads before Ran was added; inconclusive means other falling curves, or compound fluorescence or quenching; inactive means flat or rising ratio curve;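 note: potency is the fitted concentration of half-maximal effect; % of control where 0% means no effect; nearly all actives have a fitted effect of over 45% in size; -100% = wells without RanGTP and RCC1; the record marks most hits as doubtful in a second field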
#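 FRET read at 45 min, room temperature: inhibitors block the CFP/YFP signal rise when RanGTP (0.6 uM Ran, 2 mM GTP, 0.2 uM RCC1) frees Rango (0.1 uM) from importin beta (0.25 uM). Pre-read after 5 min compound exposure flags interference.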
# miR-21 reporter – raises the signal of a miR-21 reporter. HeLa miR-21 FLuc reporter, luciferase, 48 h. Potency, µM (series often up to 38.3 µM), for inactives: top-dose reporter change, positive = more light. 340,000 tested, under 10 active; active = well fitted rising curve with a large enough effect; inconclusive = small, poorly fitted or top-dose-only effect; inactive = no such curve, though single readings can be large or run the other way;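 note: % of control where 0% means no effect; miR-21 action dims this reporter so a rising signal means less miR-21 action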
#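 Luminescence from a firefly luciferase reporter carrying a miR-21 binding site downstream, stably expressed under a CMV promoter in HeLa cells that make miR-21 endogenously, reports miRNA modulation after 48 h compound exposure up to approximately 40uM final.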
# Rango complex inh – prevents formation of the Rango-importin beta complex; Potency, µM (titrated, usually from 92.2 µM), for the others: at the top dose inhibition of complex formation; AID 540263; Rango CFP/YFP FRET sensor + importin beta, 45 min; 340,000 compounds, 0.031% hits; Q14974; active = rising FRET ratio curve, often small or poorly fitted; inconclusive = mostly compound fluorescence or quenching in the first reads; inactive = flat curves in all reads;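 note: potency is the fitted concentration of half-maximal effect; 0% = DMSO wells and 100% = buffer wells lacking importin beta; nearly all actives have a fitted effect of over 15% in size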
# Target sequence (Q14974 whole entry, looked up): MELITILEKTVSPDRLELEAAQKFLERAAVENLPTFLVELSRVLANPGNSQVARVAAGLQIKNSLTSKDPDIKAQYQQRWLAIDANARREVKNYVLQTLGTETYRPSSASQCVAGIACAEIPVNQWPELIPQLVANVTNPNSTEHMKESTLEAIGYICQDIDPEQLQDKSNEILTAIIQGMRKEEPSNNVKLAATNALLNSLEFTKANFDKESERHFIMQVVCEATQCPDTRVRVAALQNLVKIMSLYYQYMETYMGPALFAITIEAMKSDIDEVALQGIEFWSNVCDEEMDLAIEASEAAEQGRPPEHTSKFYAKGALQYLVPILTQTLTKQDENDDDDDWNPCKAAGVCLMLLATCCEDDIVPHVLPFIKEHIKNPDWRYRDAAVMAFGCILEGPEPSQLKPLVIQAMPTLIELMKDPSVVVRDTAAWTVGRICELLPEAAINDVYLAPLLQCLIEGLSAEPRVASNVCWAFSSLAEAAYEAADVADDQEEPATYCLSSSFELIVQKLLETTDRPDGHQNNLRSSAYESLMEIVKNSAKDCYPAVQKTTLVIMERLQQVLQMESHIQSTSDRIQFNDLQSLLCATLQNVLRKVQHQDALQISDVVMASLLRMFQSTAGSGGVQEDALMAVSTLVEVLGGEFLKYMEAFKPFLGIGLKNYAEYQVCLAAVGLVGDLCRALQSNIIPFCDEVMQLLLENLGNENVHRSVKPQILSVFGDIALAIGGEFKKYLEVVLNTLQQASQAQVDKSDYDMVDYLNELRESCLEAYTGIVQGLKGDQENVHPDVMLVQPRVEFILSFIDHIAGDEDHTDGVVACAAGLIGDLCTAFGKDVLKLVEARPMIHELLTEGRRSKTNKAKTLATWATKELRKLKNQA
#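 FRET biosensor Rango (snurportin 1 IBB between N-terminal EYFP and C-terminal Cerulean), 50 nM in PBS/1 mM DTT/0.02% Tween-20/0.1% BSA, preincubated 5 min RT with compound; 0.125 microM importin beta added, 45 min RT, CFP/YFP FRET ratio read.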
# GLA inh pH 4.5 – blocks human alpha-galactosidase A at pH 4.5; P06280; purified enzyme, 4-MU-alpha-Gal fluorescence, pH 4.5; activity change, negative = inhibition, % at 105 µM; 230,000 tested, under 10 active; AID 1467; inconclusive = small, poorly fitted or top-dose-only inhibition, or a rising curve; inactive = flat fitted curve, though single readings scatter; no compound was filed as active;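 note: 0% = full activity with enzyme and -100% = basal without enzyme; dose as in the result columns while the protocol names 77 µM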
# * = called active by the depositor; ? = inconclusive; . = no result given; & = joins results of further samples. Not all compounds are listed. The share of hits here may be higher or lower than overall.
# Second line of a record: Rango release inh, miR-21 reporter, Rango complex inh, GLA inh pH 4.5
CCN1CCC(n2nccc2NC(=O)c2ccccc2Cl)CC1
 : 0%, ., -3.0%, .
Cc1[nH][nH]c(=O)c1C(c1ccc(-c2ccc(Cl)c(C(=O)O)c2)o1)c1c(C)[nH][nH]c1=O
 : -14%, -1%, -0.2%, 6
COCCCN1C(=O)C(=O)/C(=C(/O)c2ccc(S(=O)(=O)N3CCOCC3)cc2)C1c1ccc(OC)cc1 (centres undefined)
 : 1%, -3%, 0.1%, .
CN1CCN(c2c(F)cc3c(=O)c(C(=O)O)cn(CCF)c3c2F)CC1
 : ., 3%, ., 5
CCN(CC)Cc1csc2ccc(Br)cc12
 : -9%, -2%, -0.2%, -5
Cc1cc(C)cc(NC(=O)NCc2nnc(SCc3ccccc3)n2C)c1
 : -13%, 1%, -4.3%, -7
N#CC1=C(N)SC(N)=C(C#N)C1c1ccc([N+](=O)[O-])cc1
 : -19%, -3%, 4.8%, 5
CC1CCC(NC(=O)c2ccc(-n3cncn3)c([N+](=O)[O-])c2)CC1 (centres undefined)
 : -7%, ., 2.4%, .
CC(=O)Nc1ccc(S(=O)(=O)NCc2ccc(C(=O)NCCCN3CCC(C)CC3)cc2)cc1
 : 0%, 1%, 1.8%, .
Cc1nc(Nc2ccccc2Br)c2nnn(Cc3ccccc3)c2n1
 : -19%, 6%, -3.8%, .
COc1cc(NC(=O)CSc2nncn2C)cc(OC)c1OC
 : -4%, 0%, -0.5%, -1
COc1ccc(COc2cc(-c3cccc(OC)c3)nc3ccc(NC(=O)c4ccc(OC)cc4)cc23)cc1
 : -12%, 21%, -2.3%, -11&-3
CCCNS(=O)(=O)c1cccc(C(=O)OCc2cc(=O)oc3cc(OC)ccc23)c1
 : -11%, 21%, -3.9%, .
O=C(CCN1C(=O)/C(=C/c2ccccc2)SC1=S)Nc1ccccn1
 : 15µM*, 1%, -1.0%, .
CCOC(=O)[C@@H]1[C@H]2COc3ccccc3[C@@H]2N2C(=O)N(c3ccc(C(F)(F)F)cc3)C(=O)[C@@]12C
 : -9%, ., 0.5%, .
CNC(=S)Nc1ccc(C)c(NC(=S)NC)c1
 : -10%, -2%, -0.9%, 4
CC1(C)SC2C(C(=O)O)N=C(Cc3ccccc3)N2C1C(=O)O (centres undefined)
 : 15%, ., 1.2%, .
O=C(Nc1nc2ccccc2[nH]1)C1CC1
 : 19%, -5%, 7.0%, -2
Cc1ccc(S(=O)(=O)Nc2ccc3cc([N+](=O)[O-])ccc3c2[N+](=O)[O-])cc1
 : 8%, ., 7.9%, .
COCCCNC(=O)C1=CCN(S(=O)(=O)c2ccc(OC)cc2)CC1
 : 21%, 4%, 0.9%, .
Cc1cc(C)nc(NC(=O)c2cc(-c3ccc(C)s3)nc3ccccc23)c1
 : -4%, -2%, -2.6%, 5
CCCCNc1nnc(SCC(=O)c2c[nH]c3ccccc23)s1
 : 9%, -5%, 1.1%, -3
CC(=O)Nc1ccc2nc(NC(=O)CN3CCOCC3)sc2c1
 : -1%, 1%, -1.7%, .
COc1ccc(CCNC(=O)CSc2ccccc2)cc1OC
 : -3%, -6%, -0.7%, 5
CCCCCCOC(=O)C(C#N)c1nc2ccccc2nc1N1CCCCC1 (centres undefined)
 : -7%, -2%, 3.4%, -11
CCn1c(C)nc2cc(C(=O)NNS(=O)(=O)c3c(C)c(C)cc(C)c3C)ccc21
 : -10%, -1%, 2.7%, -6
CCc1nc(N)nc2c1C(=O)CC(C)(C)C2
 : -6%, -13%, 0.1%, 9
O=C(c1cc2ccccc2oc1=O)N(Cc1ccc2c(c1)OCO2)Cc1ccco1
 : -9%, -29%, 0.3%, -7
CS(=O)(=O)N1CCC(C(=O)NCc2ccco2)CC1
 : 8%, 2%, -0.4%, 0
COc1ccc(N(CC(=O)NC2CCCCC2)C(=O)c2ccc(C)s2)c(OC)c1
 : -11%, -9%, 8.1%, .
Cc1ccccc1OCC(=O)OCC(=O)c1ccc(OCc2ccccc2)cc1
 : -13%, -57%, 5.1%, 0
NC(=O)C1CCN(C(=O)CSc2nc(O)cc(=O)[nH]2)CC1
 : 31%, -6%, -3.3%, .
O=C(Nc1ccccc1Br)C1CCCN1S(=O)(=O)c1cccc2nsnc12 (centres undefined)
 : 0%, -3%, 0.9%, .
Cc1cc(=O)oc2cc(OCC(=O)OC(C)C(=O)NC3CCCC3)ccc12 (centres undefined)
 : -2%, 1%, 0.3%, 5
CC[C@H](C)[C@@H](C(=O)NCCCCCCCCCCC(=O)N1CCNCC1)n1cc(CCCCCN)nn1
 : 16%, ., -2.2%, .
C/C=C(/C)C(=O)Nc1cccc(C2=NOC3(C2)C[C@@H](C(N)=O)N(C(=O)[C@H]2CCC(=O)N2)C3)c1 (some centres undefined)
 : -8%, 3%, 4.9%, 6
N#Cc1ccc(Oc2ccc(C(N)=O)cc2)cc1C#N
 : 19%, -5%, -5.4%, -18
COc1ccc(C(=O)N[C@H](C(=O)Nc2nc3c(s2)CCCC3)C(C)C)cc1
 : 9%, -61%, 1.4%, -25
CCOC(=O)/C=C/C(=O)OCC(=O)Nc1ccc(OC)c(Cl)c1
 : -16%, 3%, 0.1%, -18
O=C(C[n+]1ccccc1)Nc1ccccc1
 : 36%, ., 1.6%, .
CCN(CC)CCNC(=O)CS(=O)Cc1nc(-c2ccc(Cl)cc2)oc1C (centres undefined)
 : 14%, -3%, 3.5%, 3
NC(=O)C1CCN(C(=S)c2ccc(-c3ccc(Br)cc3)o2)CC1
 : -1%, -57%, ?, 4
CCCSc1nc2sc3c(c2c(=O)[nH]1)CC(C)(CC)OC3 (centres undefined)
 : -9%, -6%, -0.9%, .
Cc1cc(NC(=O)CSc2nc(CC(C)(C)C)nc3c2c(=O)n(C)c(=O)n3C)no1
 : -7%, -3%, 0.2%, 4
COc1ccc(/C=C/C(=O)Nc2cc(C(F)(F)F)ccc2Cl)cc1
 : -7%, 4%, 0.1%, -2

# Compound profiles (already shown).
# CS(=O)(=O)N1CCC(C(=O)NCc2ccco2)CC1 in the list: Rango release inh: 8%; miR-21 reporter: 2%; Rango complex inh: -0.4%; GLA inh pH 4.5: 0
# CCN1CCC(n2nccc2NC(=O)c2ccccc2Cl)CC1 in the list: Rango release inh: 0%; miR-21 reporter: .; Rango complex inh: -3.0%; GLA inh pH 4.5: .
# O=C(Nc1ccccc1Br)C1CCCN1S(=O)(=O)c1cccc2nsnc12 (centres undefined) in the list: Rango release inh: 0%; miR-21 reporter: -3%; Rango complex inh: 0.9%; GLA inh pH 4.5: .

# (cont.)
# Second line of a record: Rango release inh, miR-21 reporter, Rango complex inh, GLA inh pH 4.5
CCNC(=O)NC(=O)COC(=O)CCCSc1nc2ccccc2[nH]1
 : -8%, -12%, 4.5%, 4
CCOC(CCn1c(SCc2cccc([N+](=O)[O-])c2)nc2ccccc2c1=O)OCC
 : 7%, -6%, 0.5%, -5
Cc1ccc(S(=O)(=O)N(C)c2ccc(C(=O)NCC(c3ccco3)N(C)C)cc2)cc1 (centres undefined)
 : 50%, ., -2.8%, .
O=C1OC(/C(=C\Nc2ccccc2)[N+](=O)[O-])c2ccccc21 (centres undefined)
 : -15%, 8%, 1.1%, 4
CC(C)NC(=O)c1onc(CSc2ccccc2F)c1C(=O)O
 : -20%, 0%, -4.3%, -16
O=C(CCCNC(=O)c1ccc(Cl)cc1)Nc1ccccc1C(F)(F)F
 : 2%, -4%, ?, .
CCOC(=O)[C@H]1[C@H]2COc3cc(OC)ccc3[C@@H]2N2C(=O)c3ccc(C)cc3NC(=O)[C@@]12C
 : 16%, ., 4.7%, .
COc1ccc(-c2nc3ccccc3c(=O)n2CCOc2ccccc2C)cc1
 : -24%, -1%, -2.7%, 3
Cc1cccnc1CCNC(=O)C1CCC(=O)N(Cc2cccc(F)c2)C1 (centres undefined)
 : -1%, -4%, 3.3%, .
CC1CCCCN1CC(O)COCc1ccc(Cl)cc1 (centres undefined)
 : 9%, 1%, 5.7%, .
Cc1ccc(S(=O)(=O)NC(=O)c2ccc(-c3ccc(C)c4ccccc34)o2)cc1
 : 11%, -12%, -0.5%, 15
COc1ccc2ccc3c(c2c1)N=C[C@]1(O3)N(C)c2ccccc2C1(C)C
 : -18%, 8%, -0.8%, 6
COCCn1ccc2c(OCC(=O)NCc3ccc(C)cc3)cccc2c1=O
 : 16%, ., 2.9%, .
CC(C)(C)C(=O)c1cnc(Nc2ccccc2Cl)s1
 : ?, -53%, -1.4%, 0
C[C@H](CO)N1C[C@H](C)[C@@H](CN(C)C(=O)Nc2ccc(C(F)(F)F)cc2)Oc2c(NC(=O)c3ccncc3)cccc2C1=O
 : 1%, ., -1.6%, .
COc1cccc(-c2[nH]nc3c2C(c2ccsc2)C(C#N)=C(N)O3)c1 (centres undefined)
 : -4%, -5%, -0.3%, 4
Cc1cc(=O)c(C(=O)O)cn1Nc1ccc(Cl)cc1
 : -2%, 0%, 0.5%, 1
CCc1nnc(NC(=O)CSc2nc(-c3ccccc3)cc(-c3ccc(F)cc3)c2C#N)s1
 : ?, 1%, 2.2%, 5
CCCCC1=CC2=CC(=O)C(C)(OC(=O)CC)C(=O)C2=CN1c1ccc(OC)cc1 (centres undefined)
 : -24%, 2%, ?, 2&-13
O=C(Nc1cccc([N+](=O)[O-])c1)c1ccc2c(c1)C(=O)N(c1ccccn1)C2=O
 : 12%, -3%, 2.5%, .
COC1OC(CO)C(O)C(O)C1O (centres undefined)
 : 11%, 0%, 0.5%, .
O=C(NCc1nnc(SCC(=O)N2CCCCCC2)o1)c1ccc(F)cc1
 : 0%, -4%, -0.1%, .
COC(=O)C1=C(O)/C(=C\c2ccc(CNC(=O)C(=O)Nc3ccc(C)cc3)o2)N=C1C
 : ?, -11%, ?, 3
COc1cc(CC(=O)O)c(C(C)=O)cc1OC
 : 0%, -3%, -0.8%, 2
O=C(NNC(=O)C1CCC(C(=O)NNC(=O)c2cccs2)CC1)c1cccs1 (centres undefined)
 : 4%, -2%, -0.8%, 5
O=C(Nc1ccc(Cl)cn1)c1ccccc1SCc1ccccc1
 : 2%, 1%, -2.9%, .
O=C(NN1CC(=O)N(c2cc(Cl)cc(Cl)c2)CC1=O)c1cccs1
 : -27%, 1%, 3.4%, 7
COCCNC(=O)c1nc2c(nnn2Cc2cc(C)ccc2C)c(=O)[nH]1
 : -5%, -7%, -5.3%, 0
CC1(C)CC2CC(C)(CN2S(=O)(=O)c2cccc(C(=O)O)c2)C1 (centres undefined)
 : 16%, ., 11%, .
C#CCOCCOCCOCCNc1nc(N2CCN(C(=O)C([C@@H](C)O)n3cc([C@@H](N)CCCCN)nn3)CC2)nc(N2CCN(C(=O)C([C@@H](C)O)n3cc([C@@H](N)CCCCN)nn3)CC2)n1 (some centres undefined)
 : -7%, ., 8.7%, .
CCOc1cc(/C=C(\C#N)C(=O)Nc2ccccc2C(=O)O)ccc1OC(=O)c1ccc(C)cc1
 : -7%, -4%, 0.0%, .
COc1ccc(C2=NN(Cc3c(F)cccc3Cl)C(=O)CC2)cc1
 : 3%, -18%, 0.1%, 0
O=[N+]([O-])c1cccc(/C=C/c2ccccn2)c1
 : 32%, -11%, -1.5%, -14
Nc1nnc(SCc2cccnc2)s1
 : -2%, -7%, 2.7%, -6
Cc1cccc(N2CCN(S(=O)(=O)c3c(C)noc3/C=C/N(C)C)CC2)c1C
 : 4%, 0%, -0.2%, .
COc1cc(CC(=O)Nc2ccc3nc(C)sc3c2)cc(OC)c1OC
 : -13%, -11%, 0.3%, 1
COc1ccc2c(c1)c1ccccc1n2C
 : -5%, -11%, 3.8%, -3

# Two entries from above, set out differently.
SMILES	Rango release inh	miR-21 reporter	Rango complex inh	GLA inh pH 4.5
CC1(C)CC2CC(C)(CN2S(=O)(=O)c2cccc(C(=O)O)c2)C1 (centres undefined)	16%	.	11%	.
COc1ccc2ccc3c(c2c1)N=C[C@]1(O3)N(C)c2ccccc2C1(C)C	-18%	8%	-0.8%	6
